NPYLR7 agonist: activates Aedes aegypti NPYLR7 receptor; HEK293T NPYLR7/Galpha15, GCaMP6s calcium fluorescence; activation, % at 10 µM; actives 0.15% (n = 270,000); AID 1259423; in the data active means activation above about 40%;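 further: 0% = vehicle and 100% = reference agonist at the receptor; some compounds past the cut are filed as inactive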
NPYLR7 agonist max-min: recorded beside NPYLR7 agonist, whose call it bears; activation, %; measured here: Max-Min RFU normalised activation; some inactives read as strong as hits;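 span of the calcium signal over five minutes; 0% = vehicle and 100% = native peptide agonist; compound fluorescence can raise it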
An asterisk follows results filed as active; & = joins results of further samples. Only part of the results is shown; count on the stated rates, not on these rows.

Below each compound – NPYLR7 agonist, NPYLR7 agonist max-min
c1cnc(-c2cc(NC3CCNCC3)nc3[nH]ccc23)cn1
  37, 17
CCOC(=O)c1ccc(NC(=O)CSc2nnc(NC(=O)COc3ccc(Cl)cc3)s2)cc1
  -5, 4
CC(C)c1cccc(-c2ccc3c(c2)N(CCN2CCOCC2)C(=O)COC3)c1
  6, 1
O=C(NC1(c2ccc(Br)cc2)CCOCC1)c1cnc(Cl)c(Cl)c1
  10, 9
Cc1csc(-c2cc(C(=O)NCCN3CCOCC3)cc(S(=O)(=O)N3CCOCC3)c2)c1
  7, 9
CCOC(=O)C1CCN(C(=O)c2csc(CSc3nnc(-c4ccco4)n3-c3ccc(Cl)c(Cl)c3)n2)CC1
  14, 11
CCC(CO)N(Cc1ccco1)C(=O)c1scc2c1OCCO2 (stereo not given)
  3, 2
Cc1ccc(OCc2nc(CN(C(=O)Cc3ccccc3)C(C)C)cs2)cc1C
  21, 16
CN(c1ccccc1)c1nnc(C(O)c2c(F)c(F)c(F)c(F)c2F)s1 (stereo not given)
  -3, -1
CC(=O)N1C2C=CC(C2)C1(C(F)(F)F)C(F)(F)F (stereo not given)
  8, 8
COc1ccc(C(=O)c2cc(C(=O)c3ccccc3)n(CC(=O)O)c2)cc1
  -4, 20
CC(=NNc1cc(C)nc2ncnn12)c1ccco1
  2, 2
Cc1nc(NCC(c2cccs2)N(C)C)c2c3c(sc2n1)CCCC3 (stereo not given)
  -4, -6
COc1ccc(C2Oc3ccccc3C3CC(c4ccc(OC)c(OC)c4)=NN32)cc1 (stereo not given)
  1, 0
O=C(C[C@@H]1C[C@@H]2C=C[C@H]1C2)N1CCc2c(nc(-c3cccnc3)[nH]c2=O)C1
  4, 1
CCOC(=O)c1cc(-c2ccccc2)sc1NC(=O)COc1ccc(Cl)cc1
  -6, -6
Cc1ccc(C2=NOC(CN(Cc3cccc(C(F)(F)F)c3)C(=O)NC(C)(C)C)C2)cc1 (stereo not given)
  14, 28
CCOC(=O)C1(CC2CCCCO2)CCN(C(=O)Nc2cccc(SC)c2)CC1 (stereo not given)
  -7, -11
CC1C(=O)N(c2ccc3c(c2)OCO3)CCN1C(=O)Nc1ccccc1 (stereo not given)
  -1, 6
Cc1cc(C)n(CCCNC2CCN(CC(C)C)CC2)n1
  4, 2
CCn1c(CC2CCN(Cc3nc(C)ccc3O)CC2)n[nH]c1=O
  6, 5
Cc1cnc(C(NC(=O)c2cc(F)ccc2C)C2CC2)s1 (stereo not given)
  1, -1
Cc1cc(C)n(CCN(C(=O)c2cc3ccccc3oc2=O)c2nc3c(F)cc(F)cc3s2)n1
  -15, -20
CCOC(=O)C(NS(=O)(=O)c1ccc(C)cc1)(N1CCCC1=O)C(F)(F)F (stereo not given)
  -1, -4
Cc1cc(S(=O)(=O)N2CCCC(CNC(=O)c3cccnc3)C2)c(C)s1 (stereo not given)
  16, 8
CN(C)S(=O)(=O)c1ccc(Cl)c(C(=O)NC2CCS(=O)(=O)C2)c1 (stereo not given)
  5, 5
Cc1ccc(N2C(=O)CC(N3CCC(Cc4ccccc4)CC3)C2=O)cc1Cl (stereo not given)
  4, 0
O=C(NCCn1ncccc1=O)c1c(F)cccc1Cl
  2, 1
COc1cccc(C(=O)n2sc(=O)c3ccccc32)c1
  1, -2
CCCCSc1nc2ccccc2n1CCO
  -6, -9
Cc1ncc([N+](=O)[O-])n1CC(C)O (stereo not given)
  -9&3&-10, -18&-1&-14
CC(=O)Cn1c(=O)c2c(nc3n2CCCN3c2cc(C)cc(C)c2)n(C)c1=O
  2, -2
CCN1C[C@H]2COc3ccc(C)cc3[C@H]2N(C(=O)c2ccco2)CCC1=O
  5, 17
CCOc1ccc2nc(N3CCC(C(=O)N(CC)CCn4cccn4)CC3)nc(C)c2c1
  24, 19
CCOC(=O)c1ccc2c(c1)nc(SCc1ccccc1OC(F)F)n2Cc1ccco1
  1, -3
O=C(NCc1ccccc1)c1cc(N2CCC[C@@H]2CO)ccn1
  4, 3
COc1ccc(C(=O)N(CCCN2CCOCC2)CC(=O)N(Cc2ccc(F)cc2)Cc2ccco2)c(OC)c1
  0, 7
COc1c(C)cnc2c1c(=O)n(Cc1cccnc1)c(=O)n2C
  0, -1
CCn1c(SCC(=O)c2ccc(OC)cc2)nc2c([nH]c3ccccc32)c1=O
  -3, -4
COc1ccc(CCNC(=O)c2ccccc2S(=O)(=O)C(C)C)cc1
  10, 1
Cc1nn(S(=O)(=O)N2CCCCCC2)c(C)c1Cl
  -2, -5
C=C=C/C=C/C=C\Oc1ccc(CO)cc1O/C=C\C=C\C=C=C
  9, 11
CCOCCOC(=NCC(C)C)NC(=O)c1cccs1
  25, 23
Cc1cc(NC(=O)c2ccco2)n(-c2ncnc3c2cnn3-c2cccc(C)c2C)n1
  5, 5
CC(C)CN1CCC1(C)C(=O)Nc1cccc(Cl)c1 (stereo not given)
  5, 1
O=C(CSc1nc(=O)[nH]c2c1CCCC2)NCc1ccc(Cl)cc1
  2, -1
O=C1CCCCC1C1COCCN1C(=O)/C=C/c1cccnc1 (stereo not given)
  1, -2
CCCc1nc(C(=O)N2CCCC3(CN(C)C(=O)O3)C2)cs1 (stereo not given)
  3, -1
C=CCn1c(C)cn2c3c(=O)n(Cc4ccc(Cl)cc4)c(=O)n(C)c3nc12
  5, 1
CCCNC(=O)CSc1nnnn1C1CC1
  4, 1
CC(C)(C)OC(=O)N1CCC(Oc2ccccc2)(C(=O)Nc2cc(F)cc(F)c2)CC1
  0, 0
Cc1ccc2c(c1)N(C)C(=O)c1cc(NS(=O)(=O)CCc3ccccc3)ccc1O2
  8, 4
Cn1c(=NC(=O)CSCC(=O)Nc2nccs2)sc2ccccc21
  10, 7
COCCCNc1nc2ccccn2c(=O)c1C=C1SC(=S)N(CCCOC)C1=O
  4, 2
O=C(Nc1ccc(F)c(Cl)c1)c1cc(C2CC2)n(C2CCS(=O)(=O)C2)n1 (stereo not given)
  3, 0
Cc1nc(C)c2c(C)c(CNCCN3CC(C)OC(C)C3)sc2n1 (stereo not given)
  0, 13
CCOC(=O)C1CCCN(C(=O)c2cccc(CSc3nc(C)cc(N4CCN(Cc5ccccc5)CC4)n3)c2)C1 (stereo not given)
  8, 11
COc1ccc(CCC(=O)N2CCCC(Nc3ccc(C)c(C)c3)C2)cc1OC (stereo not given)
  3, 2
CCCCc1ccc(-c2nc(C=Nc3ccc(Cl)cc3)c(O)o2)cc1
  6, 3
O=C(c1ccccc1-c1ncc[nH]1)N1CCCCC1CCn1cccn1 (stereo not given)
  12, 3

(further entries)
Compound | NPYLR7 agonist | NPYLR7 agonist max-min
C[C@H](C(=O)NCCc1ccccc1)N1Cc2ccc(Nc3ncccn3)nc2C1=O | 8 | 4
COc1ccc(-c2cccc(NC(=O)Nc3ccc(C)cc3)c2)nn1 | -1 | -1
O=C(NC1(c2ccc(Cl)cc2)CCOCC1)c1ccccn1 | 7 | 2
COc1ccccc1-n1c(-c2ccc(Cl)cc2)cc(C(=O)N2CCC(Cc3ccccc3)CC2)c1C | 1 | 13
O=C(CCCNC(=O)C1CC1)NC1CCCCC1Oc1ccccc1 (stereo not given) | 3 | 1
COC(=O)CSc1nc2ccccc2c(=O)n1-c1ccc(C)cn1 | 19 | 7
O=C(CN1CCCCCC1=O)N1CC=C(c2c[nH]c3cc(F)ccc23)CC1 | 1 | -1
COCc1nn2c(nnc3c(=O)n(C4CCCC4)ccc32)c1-c1ccccc1 | 2 | 2
CN(Cc1ccco1)c1nc(-c2ccc(Oc3ccccc3)cc2)nc2ccccc12 | 3 | 1
Cc1cc(NC(=O)C(c2cccc(F)c2)N2CCOCC2)ccc1-n1cnnn1 (stereo not given) | 6 | 4
O=c1[nH]nc2n1-c1c(cc(NCc3ccco3)c(Cl)c1[N+](=O)[O-])OC2 | 6 | 8
COCCCN(Cc1c(C)nn(-c2ccccc2)c1N1CCN(C)CC1)C(=O)Nc1ccc(Cl)c(Cl)c1 | 20 | 25
COc1ccc(C2=Nc3ncnn3C(c3ccc(OC)cc3OC)C2)cc1 (stereo not given) | -8 | -10
Cc1ccoc1C(=O)N1CC(c2ccccn2)C1 | 7 | 6
COCC(=O)Nc1ccc(-c2ncc(C(C)C)o2)cc1 | 7 | 2
O=C(Cn1cnc([N+](=O)[O-])n1)Nc1cccnc1Cl | 20 | 7
CCCOc1cccn2c(N(C)C(=O)CC(C)C)c(CC)nc12 | 5 | 6
CCCNC(=O)c1cc(NC(=O)Nc2ccc(C)cc2C)ccc1N1CCCC1 | 5 | 6
c1ccc(COCC2NCCc3[nH]cnc32)cc1 (stereo not given) | 32 | 20
CCCCN(CCC(=O)N1CCN(Cc2ccccc2)CC1)c1nc(Cc2ccc(C)cc2)ns1 | -2 | 10
CC(C)[C@@H]1CC[C@@H](C)C[C@H]1OCC(=O)N1CCCN(Cc2cc(=O)c(OCc3cccc(F)c3)co2)CC1 | 10 | 0
CCOC(=O)C1CCN(CC(=O)N2N=C(c3ccc(C)cc3C)CC2c2ccccc2Cl)CC1 (stereo not given) | 1 | 1
O[C@@H]1CN(Cc2cnn(-c3cccc(Cl)c3)c2)CC[C@H]1N1CCCCCC1 | 5 | 1
Cc1ccc(-c2ccsc2C(=O)OC(C)C(=O)NC(C)C)cc1 (stereo not given) | -3 | -3
CCC(=O)N1CCCC1(C)C(=O)Nc1cccc2c1CCCC2 (stereo not given) | 5 | 2
Cc1nn(CN2CCOC(c3ccc(Cl)cc3)C2)c(=O)c(C#N)c1C (stereo not given) | -2 | -4
C[C@@H]1CC[C@H]2[C@H](C)[C@H]3CC[C@H]4C5[C@@H](O)CC6=CC(=O)CC[C@]6(C)[C@H]5C[C@H]4[C@@H]3C(=O)N2C1 (stereo not given in full) | 2 | 1
COCCSc1nc2c(c(=O)[nH]c(=O)n2C)n1Cc1ccccc1 | -2 | -5
N#CC1=C2C=CC=CN2C(c2ccccc2)(C(F)(F)F)N=C1SCC(=O)NC1CC1 (stereo not given) | 5 | 7
COc1cc(NC(=O)c2ccc(N3CCC(C)=N3)cc2)cc(OC)c1 | 0 | -1
CC(C)c1c(C(=O)NC2CCS(=O)(=O)C2)cnn1-c1ccc(Cl)cc1 (stereo not given) | 4 | 2
Cc1nn(CC(=O)N(C)CC(=O)Nc2cccc(F)c2)c(C)c1[N+](=O)[O-] | 1 | -7
CCC(NC(=O)C1CCCC1)C1c2cc(OC)c(OC)cc2CCN1Cc1cccc(OC)c1 (stereo not given) | -1 | 1
C/C=C/Cc1nnc(C(=O)N2CCC(O)(CO)C2)o1 (stereo not given) | 25 | 19
CC(NC(=O)CCCc1nc2ccccc2c(=O)[nH]1)c1ccccc1 (stereo not given) | -3 | -3
COCCN(CC(=O)N(CCc1c[nH]c2ccccc12)Cc1ccc(C(F)(F)F)cc1)C(=O)c1ccc(F)cc1 | 21 | 29
CCC(C)=NNC(=O)C(C)Oc1ccc(Cl)cc1C (stereo not given) | -7 | -11
O=C(c1cc(-c2ccccc2)on1)N1C[C@H](O)[C@@H](N2CCOCC2)C1 | 6 | 4
Cc1ccc(-c2cc(NC3CCCC3)nc3[nH]ccc23)c(N)n1 | 2 | -1
COCc1cc(N2CCN(c3ccc(OC)cc3)CC2)nc(SCc2ccc(C(=O)NCc3ccccn3)o2)n1 | 4 | 2
CCC(N)(CC)c1ccc(Cl)c(Cl)c1 | -9 | -17
CCOc1ccc(C(=O)NS(=O)(=O)c2cc(Br)ccc2C)cc1OC | -4 | -5
CCN(CC)S(=O)(=O)c1ccc2c(c1)nc(SCC#N)n2CC1CCCO1 (stereo not given) | 4 | -2
CC(C)n1ccnc1-c1cc(NCc2ccccn2)nc2[nH]ccc12 | -1 | -3
COC(=O)[C@@H]1CCCN1Cc1cn(Cc2ccccc2)nc1-c1ccc2c(c1)OCO2 | 3 | 2
O=C(NCc1ccco1)c1ccc(CSc2nnc(-c3ccncc3)n2Cc2ccccc2)cc1 | -1 | 12
CN(C)CCNc1nc2c(c(=O)[nH]c(=O)n2C)n1CCCc1ccccc1 | 17 | 13
Cc1sc2nc(CN(Cc3ccccc3)CC(O)CN3CCOCC3)[nH]c(=O)c2c1C (stereo not given) | 6 | 9
Cc1ccc(S(=O)(=O)N(C)CC(=O)N(C)c2ccc(C(N)=O)cc2)cc1 | 10 | 9
CCOc1ccc(NC(=O)N(Cc2ccc(OC)c(OS(C)(=O)=O)c2)C(C)C)cc1 | -1 | -9
COc1ccccc1N1CCN(Cc2nc(N)nc(N3CCCCC3)n2)CC1 | 3 | 7
COc1ccc(CCNC(=O)Cn2ncn3nc(-c4ccccc4)cc3c2=O)cc1OC | -9 | -15
Cc1nnc(-c2cc(Br)ccc2N)[nH]c1=O | 10 | 8
C=CCn1nnnc1NCc1ccc(N(CC)CC)cc1 | 2 | 1
COc1ccc(C=Nn2c(-c3ccc(OC)cc3)csc2=NC2CC2)cc1 | -3 | -16
COc1cc(CN2CCC(n3nccc3NC(=O)Cc3ccccc3)CC2)ccc1F | 4 | 1
